HNF4A DNA FP – change in binding of human HNF4A to DNA, primary screen, biochemical, fluorescence polarization, FITC-DNA; Hepatocyte nuclear factor 4-alpha (Homo sapiens), P41235; 1 h; activity change, % at 10 µM; hit rate 0.3% among 360,000; AID 1224865, 2016; in the data active = activity change above about 30%, passing the limit was not always enough;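 note: controls were the assay level and a saturating level of protein; the project sought stronger binding though the title names inhibitors; some compounds called inactive have numbers as strong as hits; positive values seem to mean higher polarization but the record does not say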
Target sequence (P41235 whole entry, looked up): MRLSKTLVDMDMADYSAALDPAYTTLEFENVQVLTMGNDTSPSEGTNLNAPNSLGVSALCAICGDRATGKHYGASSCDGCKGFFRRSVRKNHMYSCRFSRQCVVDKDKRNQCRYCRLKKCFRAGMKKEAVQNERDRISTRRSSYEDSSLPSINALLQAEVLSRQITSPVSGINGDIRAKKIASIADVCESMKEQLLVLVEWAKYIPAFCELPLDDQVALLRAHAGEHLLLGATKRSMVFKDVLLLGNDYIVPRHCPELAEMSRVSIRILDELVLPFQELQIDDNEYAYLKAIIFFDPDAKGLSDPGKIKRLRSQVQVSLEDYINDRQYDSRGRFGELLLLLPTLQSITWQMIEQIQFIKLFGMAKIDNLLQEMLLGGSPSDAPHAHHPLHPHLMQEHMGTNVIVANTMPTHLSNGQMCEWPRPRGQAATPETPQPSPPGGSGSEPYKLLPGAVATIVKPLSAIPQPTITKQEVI
E coli growth – E. coli growth inhibition, primary screen, OD600; hit rate 0.21% among 330,000; OD600 absorbance (no concentration beside the values); Escherichia coli growth, 23 h; hits give low values;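 active = OD600 absorbance below the run mean of sample wells minus 3.6 SD, in any replicate, cut at about 0.56 in these data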;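 note: stock transfer was 300 nL into about 60 µL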
Vif TR-FRET – inhibitors of Vif binding to APOBEC3G peptide, primary screen, biochemical, TR-FRET, GST-Vif 1-94, biotin-A3G peptide, dose response retest (AID 1117319); inhibition, %; hits with a dose series show IC50 in µM; TR-FRET GST-Vif / biotin-A3G peptide binding; higher % means a stronger effect; test concentration not given here; strong numbers were not always called active; Virion infectivity factor (Human immunodeficiency virus type 1 group M subtype B (isolate …; hit rate 0.57% among 260,000;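 active = above the screen mean plus three standard deviations and confirmed in dose response; inconclusive = results disagree or hit not tested in dose response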;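 note: Vif residues 1-94 fused to GST binding biotinylated APOBEC3G peptide 110-148; 0% = full assay without inhibitor and 100% = GST in place of GST-Vif; retest series ran down from 100 µM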
FGF22 binding – binders of human FGF22 protein, primary screen, FGF22 synaptogenesis inhibitor project, biophysical, thermal shift, single point. Fibroblast growth factor 22 (Homo sapiens), Q9HCT0. recombinant FGF22 thermal shift, SYPRO orange fluorescence; percent of sucrose octasulfate shift, DMSO zero. calls only at 9.99 µM. hit rate 1.5% among 340,000. AID 651658, 2012;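 active = melting point raised past a set limit in the mean and every replicate; inconclusive = no clear call; three in four hits are not shown here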
Target sequence (Q9HCT0 whole entry, looked up): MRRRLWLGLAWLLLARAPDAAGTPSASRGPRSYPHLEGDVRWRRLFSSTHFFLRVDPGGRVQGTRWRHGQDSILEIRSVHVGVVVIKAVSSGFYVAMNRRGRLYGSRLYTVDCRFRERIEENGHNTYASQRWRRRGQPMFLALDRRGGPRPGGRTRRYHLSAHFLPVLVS
Ecoli rRNA inh – reduced GFP signal of wild-type E. coli, primary screen, bacterial rRNA inhibitor project, GFP/RFP fluorescence, OD600, single point. hit rate 1.6% among 350,000. GFP signal change (wild-type ribosome), % (no concentration beside the values). AID 720706, 2013. E. coli WT GFP vs humanized-ribosome RFP mutants, 24 h; hits give low values; DMSO median 0, no signal -100;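 active = significant combined selectivity score with lowered wild-type GFP, culture density cut under 30%, mutant RFP and density less affected; inactive = any of these conditions unmet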; note: one replicate is shown; some compounds called inactive have numbers as strong as hits
AF4-AF9 inh – inhibitors of AF4 peptide binding to AF9, primary screen, biochemical, AlphaScreen, biotin-AF4 peptide, FLAG-AF9, single point. hit rate 0.47% among 350,000. inhibition, % at 10 µM;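 active = every replicate reaching a set inhibition limit, whatever the replicate mean, cut at about 25% in these data; inconclusive = mean inhibition reaches that limit but some replicates miss it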;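 note: 0% = plate neutral control median and 100% = total signal loss; the record names both 10 and 1 µM as test concentration; the first replicate is given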
ALR inh – inhibitors of human ALR sulfhydryl oxidase, primary screen, biochemical, H2O2 detection, HRP-luminol luminescence, single point; FAD-linked sulfhydryl oxidase ALR (Homo sapiens), P55789; purified ALR, DTT oxidation; inhibition, % (no concentration beside the values); hit rate 3.8% among 290,000; AID 485317, 2010;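 active = mean and each replicate at 75% or more; inconclusive = only one of the two met; inactive = neither met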;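 note: stock transfer was 7.5 nL into about 7.5 µL; 0% = neutral wells and 100% = wells with inactivated enzyme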
Target sequence (P55789 whole entry, looked up): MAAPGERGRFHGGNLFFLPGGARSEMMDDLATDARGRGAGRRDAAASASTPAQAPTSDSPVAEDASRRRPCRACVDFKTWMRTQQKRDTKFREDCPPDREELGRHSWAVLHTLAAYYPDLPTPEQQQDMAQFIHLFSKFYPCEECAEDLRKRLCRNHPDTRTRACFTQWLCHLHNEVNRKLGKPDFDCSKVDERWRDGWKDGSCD
Ecoli rRNA inh OD600 – also measured in Ecoli rRNA inh; calls as there; OD600 change, %; measured here: OD600 growth;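 optical density of the mix in the first replicate; 0 = DMSO median and -100 = no signal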
Ecoli rRNA inh RFP – further read-out of Ecoli rRNA inh, marked with its call; RFP signal change, %; measured here: RFP humanized mutant strains;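 first replicate; 0 = DMSO median and -100 = no signal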
* = called active by the depositor; i = inactive; ? = inconclusive; nt = not tested or not shown; & = joins results of further samples. Not all compounds are listed, so the mix of outcomes need not match the whole.

Below each compound: HNF4A DNA FP, E coli growth, Vif TR-FRET, FGF22 binding, Ecoli rRNA inh, Ecoli rRNA inh OD600, Ecoli rRNA inh RFP, AF4-AF9 inh, ALR inh
- COc1cc2c(cc1OC)CN(C(=O)/C=C/c1cc(OC)c(OC)c(OC)c1)CC2
 : 1.2, 0.66, 4%, i, -15, -8, 2.9, 6.0, 41
- Cc1cccc(C(=O)NCC(=O)N2CCC2)c1
 : 4.0, 0.71, 7%, i, 15, 8, -0.4, -1.6, nt
- O=C(CSC1=NCCN1)NC1CCCCCC1
 : 2.9, 0.72, -4%, nt, nt, nt, nt, nt, 5
- COc1ccc(S(=O)(=O)Nc2ccc3c(c2)C(=O)N([C@@H](C)CO)C[C@@H](C)[C@@H](CN(C)S(=O)(=O)c2c(C)noc2C)OCCCC[C@@H](C)O3)cc1
 : nt, nt, nt, i, -2, -6, -1.9, 0.5, nt
- COCCNC(=O)C1(C)CCCN(C(=O)c2cccnc2SC)C1 (configuration not stated)
 : -0.5, nt, nt, i, 8, 19, -12, 0.4, nt
- O=C(c1ccccc1)N1N=C(c2ccccc2)CC1c1cccs1 (configuration not stated)
 : -0.7, 0.69, -1%, i, -34, -46, -3.7, 6.4, -1
- O=C(COc1ccc(Cl)cc1)N/N=C/c1cccc2cccnc12
 : 2.8, nt, nt, i, 17, 14, 1.2, -1.0, -3
- COc1ccc([C@H]2CC(=O)C=C(c3ccc4c(c3)OCCO4)C2)cc1
 : 0.6, nt, nt, i, -21*, -9.5*, 4.3*, 0.4, -5
- COc1cc([C@H]2OC[C@H]3[C@@H]2CO[C@H]3c2ccc(O)c(OC)c2)ccc1O
 : 3.2, nt, nt, i, 5, 4, -2.1, -7.6, 98*
- CCOc1ccccc1C(=S)NC1CCCCC1
 : 7.5, 0.66, 35%, i, -17, -8, -1.8, -2.1, -6
- Cc1cc2oc(=O)cc(Cn3ccnc3)c2cc1C
 : -2.2, 0.63, 0%, nt, nt, nt, nt, nt, -17
- COc1ccc(CCNC(=O)C(CC(C)C)NC(N)=O)cc1 (configuration not stated)
 : -4.2, 0.66, -5%, i, 23, 14, 4.1, 0.0, -3
- O=C(c1ccc(Cl)cc1)c1oc2ccccc2c1CS(=O)c1ccccc1 (configuration not stated)
 : 1.4, 0.74, 4%, nt, nt, nt, nt, nt, -50
- CC(=O)Nc1ccc(S(=O)(=O)NC2(C(F)(F)F)C(=O)Nc3c2c(=O)[nH]c(=O)n3C)cc1 (configuration not stated)
 : 3.0, 0.73, 7%&2%, nt, nt, nt, nt, nt, -16
- COc1ccc2[nH]c(=O)c(C(c3nnnn3C(C)(C)C)N(Cc3ccco3)CC3CCCO3)cc2c1 (configuration not stated)
 : -0.4, 0.65, 11%, i, 3, -4, -2.2, 8.6, -29
- COc1ccc(OC)c(NC(=O)c2cc(-c3cc(C)c(C)cc3O)n[nH]2)c1
 : -2.8, 0.7, 7%, i, 2, 13, -0.1, -3.2, 1
- CCN(CC)S(=O)(=O)c1ccc2c(c1)c(=O)c(C(=O)NCc1ccco1)cn2C
 : -1.7, 0.66, -6%, i, -16, -10, -1.6, 1.0, nt
- COc1cc2sc(-c3ccc(S(C)(=O)=O)cc3)c(C(=O)NCCCCO)c2cc1OC
 : 1.9, 0.69, nt, i, 2, 18, -6.2, 8.5, -5
- CNC[C@H]1OCCCC[C@@H](C)Oc2ccc(NS(=O)(=O)c3ccccc3)cc2C(=O)N([C@H](C)CO)C[C@@H]1C
 : nt, nt, nt, i, -1, -3, -1.8, -3.9, nt
- C[C@@H]1CN([C@@H](C)CO)C(=O)CCCn2nncc2CO[C@H]1CN(C)C(=O)Nc1ccc(F)cc1
 : 1.5, nt, 11%, i, 5&1, 4&6, -1.0&-1.9, 1.5&-3.4, nt
- c1ccc(CCNc2nc3ccccc3n3nnnc23)cc1
 : -2.3, 0.74, -6%, nt, nt, nt, nt, nt, 0
- CCCC(=O)NNC(=O)CCC(=O)NCc1ccccc1
 : -1.4, 0.72, 3%, nt, nt, nt, nt, nt, 2
- O=C(CN1C(=O)c2ccccc2S1(=O)=O)NCc1ccco1
 : -8.6, 0.69, nt, i, 14, 10, 0.3, -1.1, -3
- Cc1c(-c2nc(N)nc(Nc3ccccc3)n2)oc2ccccc12
 : 1.5, 0.71, -9%, nt, nt, nt, nt, nt, 11
- CO[C@@H]1CN(C)C(=O)c2cc(NS(=O)(=O)Cc3ccccc3)ccc2OC[C@@H](C)N(Cc2nccs2)C[C@H]1C
 : nt, nt, nt, i, -6, -6, 2.2, 4.0, nt
- Cc1ccc(C(O)P(=O)(OC2CCCCC2)OC2CCCCC2)cc1 (configuration not stated)
 : -1.2, 0.72, 3%, nt, nt, nt, nt, nt, 4
- COc1ccccc1C(CNC(=O)CN(C)S(=O)(=O)c1ccc(C)cc1)N1CCCC1 (configuration not stated)
 : 2.5, 0.68, nt, i, nt, nt, nt, -5.6, 4
- COC(=O)c1sc(N2CCN(c3ccc(Cl)cc3)CC2)nc1N
 : 0.3, 0.68, -1%, nt, 17, 21, -2.8, 4.9, 40
- CCC/C(O)=C1\C(=O)CC(c2ccccc2)CC1=NCCc1c(C)[nH]c2ccccc12 (configuration not stated)
 : 1.7, nt, nt, i, 3, -3, -1.9, ?, -3
- CCCCNCC#CCOc1cc(C)ccc1C(C)C
 : 0.3, 0.64, 4%, i, -37, -51, -8.7, -0.8, 2
- COc1ccc(C(=O)Nc2cc(C(=O)c3ccccc3)c(C)oc2=O)cc1
 : 8.6, 0.65, 18%, nt, nt, nt, nt, nt, 14
- O=C(C[C@@H]1CC[C@@H]2[C@H](COC[C@H](O)CN2C(=O)C2CC2)O1)NCc1ccccc1Cl
 : nt, nt, nt, i, 0, 16, -3.5, -4.0, nt
- CCC(=O)N1CCCCN2[C@@H](CO)[C@@H](c3ccc(C#Cc4cccnc4)cc3)[C@@H]2C1
 : nt, nt, nt, i, 25, 12, -3.0, -4.1, nt
- CCCCn1nnnc1C(c1cc2ccccc2o1)N1CCN(C/C=C/c2ccccc2)CC1 (configuration not stated)
 : -3.4, nt, nt, i, -12, -47, 27, 2.3, nt
- C[C@H](CO)N1C[C@H](C)[C@H](CN(C)C(=O)c2ccccc2)OCCCC[C@H](C)Oc2ccc(NS(=O)(=O)c3ccccc3)cc2C1=O
 : nt, nt, nt, i, -2, -3, 0.7, -0.1, nt
- COc1ccc(C(=O)/C=C/Nc2ccc([N+](=O)[O-])cc2C)cc1OC
 : 37*, 0.75, ?, nt, nt, nt, nt, nt, 0
- Cc1ccc(NS(=O)(=O)Cc2ccccc2)nc1
 : 3.1, 0.67, -12%, i, 18, 16, -0.6, -7.7, -17
- CC1(c2nnc(-c3ccccc3)o2)CC(c2cccc(Cl)c2)=NO1 (configuration not stated)
 : 0.7, 0.67, -1%, i, -17, -21, -5.2, 2.1, -3
- CC(C)OCCCN1CN(S(=O)(=O)c2ccc(Cl)cc2)c2nc3ccccc3nc21
 : 0.0, 0.68, -15%, nt, -10, -17, 8.3, nt, -7
- Cc1nc2cc(C(=O)O)ccc2s1
 : -3.8, 0.67, 20%, nt, nt, nt, nt, nt, -1
- Cc1ccc(NC(=O)CSCC(=O)NC2CCCCC2)cc1
 : -1.3, 0.63, -4%, nt, nt, nt, nt, nt, -3
- COc1ccc(C(=O)Nc2ccc(Cl)cn2)cc1Cl
 : 0.3, 0.63, 1%, nt, nt, nt, nt, nt, 2
- O=C(O)c1ccc[n+](Cc2ccc([N+](=O)[O-])cc2)c1
 : 2.8, 0.61, nt, i, 13, 4, -0.2, -3.1, 7
- COc1ccc(NC(=O)c2cccs2)cc1O
 : -2.9, 0.78, 2%, nt, nt, nt, nt, nt, -3
- C[C@H]1CN([C@@H](C)CO)C(=O)c2cc(NC(=O)Nc3ccc(F)cc3)ccc2O[C@H]1CN(C)C(=O)Nc1cccc2ccccc12
 : nt, nt, nt, i, -2, -2, 3.3, -1.6, nt
- O=C(c1cnn(C(=O)COc2ccccc2F)c1)c1cc(F)ccc1O
 : -0.5, nt, -2%, i, 4, 1, -4.9, 7.5, nt
- O=C(CN1CCOCC1)Nc1ccc([N+](=O)[O-])cc1Br
 : -1.7, 0.67, -1%, i, 12, 3, -4.1, 2.1, 1
- N#C[C@@H]1[C@@H](c2ccccc2)[C@H](CO)N1S(=O)(=O)c1ccc(-c2ccccc2)cc1
 : nt, nt, nt, i, -48, -73, -3.8, 0.1, nt
- CCc1nc2c(sc3nc4c(cc32)COC(C)(C)C4)c(=O)n1Cc1ccco1
 : -0.9, 0.75, 6%, nt, nt, nt, nt, nt, 8
- O=C(NCc1ccc(F)cc1)C1CCC(CNc2c(N3CCOCC3)c(=O)c2=O)CC1 (configuration not stated)
 : -0.3, 0.7, -5%, i, 7, 10, -2.8, -4.3, nt

Carrying on.
Below each compound: HNF4A DNA FP, E coli growth, Vif TR-FRET, FGF22 binding, Ecoli rRNA inh, Ecoli rRNA inh OD600, Ecoli rRNA inh RFP, AF4-AF9 inh, ALR inh
- c1ccc(-c2nnc(CSc3ccc4c(c3)OCCO4)o2)cc1
 : -1.2, 0.7, 3%, i, -36, -35, -9.8, -2.5, nt
- CO[C@@H]1CN(C)C(=O)c2cc(NC(=O)c3nc4ccccc4s3)ccc2OC[C@@H](C)N(Cc2cccnc2)C[C@H]1C
 : nt, nt, nt, i, -12, -16, 7.0, 8.7, nt
- Cc1ccccc1CC(=O)NCCN1CCCCC1
 : 1.3, 0.63, nt, i, 3, 0, 0.5, 1.2, -13
- CC(C)(C)OC(=O)N1CC2Cc3[nH]c(=O)ccc3C(C2)C1 (configuration not stated)
 : 1.5, 0.68, 15%, nt, nt, nt, nt, nt, -1
- Cc1ccc(S(=O)(=O)N2CCCCC2)cc1NC(=O)c1cc(=O)[nH]c2ccccc12
 : 1.8, 0.68, 10%, i, 11, 2, 1.5, 0.7, 0
- CC1C(=O)NN=C1C(=O)N/N=C/c1ccco1 (configuration not stated)
 : 1.4, nt, nt, i, 30, 26, 3.3, -0.1, 70
- Cc1noc(C)c1NC(=O)N(C)C[C@H]1Oc2ccc(NC(=O)c3ccncc3)cc2CC(=O)N([C@H](C)CO)C[C@H]1C
 : nt, nt, nt, i, 1, 15, -1.5, -2.6, nt
- O=C(Nc1nc2ccc(Cl)cc2s1)c1cccc(N2C(=O)CCC2=O)c1
 : 4.1, 0.73, -23%, i, 5, 7, 2.2, -1.7, -3
- Cc1ccc(S(=O)(=O)N2CCCC2C(=O)OCC(=O)Nc2ccc3c(c2)OCO3)cc1 (configuration not stated)
 : 0.3, 0.72, 1%&20%, nt, nt, nt, nt, nt, -16
- CC(=O)c1cccc(NC(=O)c2cc(S(=O)(=O)N3CCCCC3)ccc2N2CCOCC2)c1
 : 1.8, nt, 3%, i, 2, -5, -3.3, 0.3, nt
